Compound activity as filed in PubChem BioAssay.
UUG fidelity: yeast start codon fidelity modulation | S. cerevisiae UUG-firefly luciferase reporter, luminescence/redox ratio | activity score, % at 18.7 µM | hit rate 0.13% among 350,000;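 active = replicate mean at a twofold rise or more, about +100% in these data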;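 also: firefly luciferase made from a UUG start codon reports start codon fidelity; reporter light over untreated wells divided by growth signal over untreated wells; some hits fall short of that in this replicate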
HIV Env fusion: blocks HIV Env-driven cell-cell fusion; inhibition, % at 12.3 µM; hit rate 1.1% among 360,000; AID 651610; HeLa-JRFL Env/CEM21 cell fusion, luciferase;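 active = mean replicate inhibition score of at least 50 and every replicate individually at or above 50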;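 also: 0% = plate neutral controls and 100% = maraviroc near 300 nM; one replicate is shown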
An asterisk follows results filed as active; [ ] = dose if it differs, or a comment.

SMILES | UUG fidelity | HIV Env fusion
C[C@H](CO)N1C[C@H](C)[C@@H](CN(C)CC2CC2)Oc2cc(-c3ccc(F)cc3)ccc2S1(=O)=O | 17 | -2[16.7 µM]
CCCC#Cc1ccc([C@@H]2[C@@H](C#N)N(C(=O)C3CCCC3)[C@@H]2CO)cc1 | 17 | 4[16.7 µM]
CCCC#Cc1ccc2c(c1)O[C@H](CN(C)Cc1ccncc1)[C@H](C)CN([C@H](C)CO)S2(=O)=O | -9 | 23[16.7 µM]
Cc1noc(C)c1S(=O)(=O)N(C)C[C@H]1Oc2ccc(NC(=O)CCCN(C)C)cc2C(=O)N([C@H](C)CO)C[C@H]1C | 7 | -1[16.7 µM]
C[C@@H]1CN([C@H](C)CO)C(=O)c2cc(C#Cc3cccnc3)cnc2O[C@H]1CN(C)Cc1ccc(F)cc1 | -7 | -1[16.7 µM]
O=C(Nc1ccc(F)cc1)N[C@@H]1CC[C@@H](CC(=O)N2CCOCC2)O[C@H]1CO | -8 | 39[16.7 µM]
O=C(C[C@H]1C=C[C@H](NC(=O)c2ccccc2)[C@H](CO)O1)NCc1ccncn1 | -1 | -20[16.7 µM]
C[C@H]1CN([C@@H](C)CO)C(=O)Cc2cc(NC(=O)CCCCCC(=O)Nc3ccccc3N)ccc2O[C@@H]1CN(C)CC1CCCCC1 | 13 | 21[16.7 µM]
COc1ccc(NC(=O)N(C)C[C@H]2OCCCC[C@@H](C)Oc3ccc(NS(=O)(=O)c4ccccc4)cc3C(=O)N([C@H](C)CO)C[C@H]2C)cc1 | 43 | -14[16.7 µM]
C[C@@H]1CN([C@@H](C)CO)C(=O)c2cc(NC(=O)Nc3ccccc3)ccc2O[C@@H](C)CCCCO[C@H]1CN(C)S(=O)(=O)c1cn(C)cn1 | 6 | 20[16.7 µM]
C[C@H]1CN([C@@H](C)CO)C(=O)c2cccc(NC(=O)Nc3ccc(F)cc3)c2O[C@@H]1CN(C)C(=O)NC1CCCCC1 | 11 | -22[16.7 µM]
C[C@H]1CN([C@@H](C)CO)C(=O)c2cccc(NC(=O)c3ccncc3)c2O[C@@H]1CN(C)Cc1ccncc1 | -15 | 17[16.7 µM]
CO[C@H]1CN(C)C(=O)c2ccc(NC(C)=O)cc2OC[C@H](C)N(Cc2nccs2)C[C@H]1C | 27 | 11[16.7 µM]
C[C@H](CO)N1C[C@H](C)[C@@H](CN(C)Cc2ccc(C(=O)O)cc2)Oc2c(NC(=O)c3nc4ccccc4s3)cccc2C1=O | -9 | 34[16.7 µM]
COc1ccc(CN(C)C[C@@H]2OCCCC[C@H](C)Oc3ccc(NC(=O)NC(C)C)cc3C(=O)N([C@@H](C)CO)C[C@H]2C)cc1 | 8 | -15[16.7 µM]
Cc1ccc(S(=O)(=O)Nc2ccc3c(c2)C(=O)N([C@@H](C)CO)C[C@H](C)[C@H](CN(C)C(=O)Nc2c(C)noc2C)O3)cc1 | -13 | 8[16.7 µM]
C[C@@H]1CN([C@H](C)CO)C(=O)c2cccc(NC(=O)C3CCOCC3)c2O[C@H]1CN(C)CC1CC1 | -11 | 7[16.7 µM]
CNC[C@H]1OCCCC[C@@H](C)Oc2ccc(N)cc2C(=O)N([C@@H](C)CO)C[C@@H]1C | 8 | -1[16.7 µM]
CN1C(=O)c2cc(NC(=O)C3CCOCC3)ccc2OC[C@H]2O[C@H](CC(=O)O)CC[C@@H]21 | -14 | 15[16.7 µM]
C[C@H](CO)N1C[C@H](C)[C@H](CN(C)Cc2ccc3c(c2)OCO3)OCCCC[C@H](C)Oc2ccc(NC(=O)NC3CCCCC3)cc2C1=O | 11 | -48[16.7 µM]
CCC(=O)N(C)C[C@H]1Oc2cc(/C=C/c3ccccc3)ccc2S(=O)(=O)N([C@@H](C)CO)C[C@@H]1C | 17 | 22[16.7 µM]
C[C@H]1CN([C@@H](C)CO)S(=O)(=O)c2ccc(C#Cc3cccc(F)c3)cc2O[C@@H]1CN(C)S(=O)(=O)c1ccccc1F | -11 | 9[16.7 µM]
C[C@@H]1CCCCO[C@@H](CN(C)Cc2ccncc2)[C@H](C)CN([C@@H](C)CO)C(=O)c2cc(NS(=O)(=O)c3ccc(F)cc3)ccc2O1 | 7 | -6[16.7 µM]
C[C@H]1CN([C@@H](C)CO)C(=O)Cc2cc(NC(=O)Nc3ccccc3)ccc2O[C@H]1CN(C)C(=O)Nc1ccc(F)cc1 | 9 | 2[16.7 µM]
Cc1noc(C)c1S(=O)(=O)N(C)C[C@H]1OCCCC[C@H](C)Oc2ccc(NS(=O)(=O)c3ccccc3)cc2C(=O)N([C@H](C)CO)C[C@@H]1C | 4 | -25[16.7 µM]

Some of these compounds in order of heavy-atom count, highest first:
SMILES | UUG fidelity | HIV Env fusion
COc1ccc(NC(=O)N(C)C[C@H]2OCCCC[C@@H](C)Oc3ccc(NS(=O)(=O)c4ccccc4)cc3C(=O)N([C@H](C)CO)C[C@H]2C)cc1 | 43 | -14[16.7 µM]
Cc1noc(C)c1S(=O)(=O)N(C)C[C@H]1OCCCC[C@H](C)Oc2ccc(NS(=O)(=O)c3ccccc3)cc2C(=O)N([C@H](C)CO)C[C@@H]1C | 4 | -25[16.7 µM]
C[C@@H]1CN([C@@H](C)CO)C(=O)c2cc(NC(=O)Nc3ccccc3)ccc2O[C@@H](C)CCCCO[C@H]1CN(C)S(=O)(=O)c1cn(C)cn1 | 6 | 20[16.7 µM]
C[C@@H]1CCCCO[C@@H](CN(C)Cc2ccncc2)[C@H](C)CN([C@@H](C)CO)C(=O)c2cc(NS(=O)(=O)c3ccc(F)cc3)ccc2O1 | 7 | -6[16.7 µM]
COc1ccc(CN(C)C[C@@H]2OCCCC[C@H](C)Oc3ccc(NC(=O)NC(C)C)cc3C(=O)N([C@@H](C)CO)C[C@H]2C)cc1 | 8 | -15[16.7 µM]
Cc1ccc(S(=O)(=O)Nc2ccc3c(c2)C(=O)N([C@@H](C)CO)C[C@H](C)[C@H](CN(C)C(=O)Nc2c(C)noc2C)O3)cc1 | -13 | 8[16.7 µM]
C[C@H]1CN([C@@H](C)CO)C(=O)c2cccc(NC(=O)Nc3ccc(F)cc3)c2O[C@@H]1CN(C)C(=O)NC1CCCCC1 | 11 | -22[16.7 µM]
Cc1noc(C)c1S(=O)(=O)N(C)C[C@H]1Oc2ccc(NC(=O)CCCN(C)C)cc2C(=O)N([C@H](C)CO)C[C@H]1C | 7 | -1[16.7 µM]
C[C@@H]1CN([C@H](C)CO)C(=O)c2cc(C#Cc3cccnc3)cnc2O[C@H]1CN(C)Cc1ccc(F)cc1 | -7 | -1[16.7 µM]
CCCC#Cc1ccc2c(c1)O[C@H](CN(C)Cc1ccncc1)[C@H](C)CN([C@H](C)CO)S2(=O)=O | -9 | 23[16.7 µM]
CCCC#Cc1ccc([C@@H]2[C@@H](C#N)N(C(=O)C3CCCC3)[C@@H]2CO)cc1 | 17 | 4[16.7 µM]

Later entries.
SMILES | UUG fidelity | HIV Env fusion
C[C@@H]1CN([C@H](C)CO)C(=O)c2cc(C#C[C@@H](C)O)cnc2O[C@H]1CN(C)C(=O)Nc1ccc(F)cc1 | -8 | -10[16.7 µM]
C[C@H]1CN([C@@H](C)CO)C(=O)Cc2cc(NC(=O)CCN3CCOCC3)ccc2O[C@@H]1CN(C)S(=O)(=O)c1cccs1 | -4 | -3[16.7 µM]
COc1cccc(-c2ccc3c(c2)O[C@@H](CN(C)Cc2cncnc2)[C@H](C)CN([C@@H](C)CO)S3(=O)=O)c1 | -10 | 12[16.7 µM]
CC(C)CC#Cc1cnc2c(c1)C(=O)N([C@H](C)CO)C[C@@H](C)[C@@H](CN(C)C(=O)c1ccccc1F)O2 | 8 | 15[16.7 µM]
COc1cccc(NC(=O)N(C)C[C@H]2Oc3cc(-c4ccccc4F)ccc3S(=O)(=O)N([C@H](C)CO)C[C@H]2C)c1 | -6 | -16[16.7 µM]
C[C@H]1CN([C@@H](C)CO)C(=O)Cc2cc(NC(=O)C3CCCCC3)ccc2O[C@H]1CN(C)S(=O)(=O)c1ccc(Cl)cc1 | 8 | 74*[16.7 µM]
Cc1cc(C(=O)Nc2cccc3c2O[C@H](CN(C)CC2CC2)[C@H](C)CN([C@H](C)CO)C3=O)n(C)n1 | -20 | 26[16.7 µM]
CN(C)CC(=O)N1[C@H](C#N)[C@H](c2ccc(C#CC3CCCCC3)cc2)[C@H]1CO | -6 | 6[16.7 µM]
O=C(NCC[C@H]1CC[C@@H](NC(=O)C2CC2)[C@@H](CO)O1)c1cc(Cl)cc(Cl)c1 | 5 | -7[16.7 µM]
COc1ccc(-c2cnc3c(c2)C(=O)N([C@@H](C)CO)C[C@H](C)[C@H](CN(C)C(=O)NC2CCCC2)O3)cc1 | 12 | 3[16.7 µM]
O=C(C[C@@H]1C=C[C@@H](NC(=O)CN2CCOCC2)[C@@H](CO)O1)NCc1cccc(F)c1 | -9 | -17[16.7 µM]
C[C@H](CO)N1C[C@H](C)[C@H](CN(C)C(=O)Nc2cccc3ccccc23)OCCCC[C@H](C)Oc2ccc(NC(=O)Nc3ccc4c(c3)OCO4)cc2C1=O | -2 | 25[16.7 µM]
C[C@@H]1CCCCO[C@H](CN(C)C(=O)c2ccncc2)[C@H](C)CN([C@H](C)CO)C(=O)c2cc(NC(=O)C3CCCCC3)ccc2O1 | 3 | 4[16.7 µM]
CCC(=O)N[C@H]1CC[C@@H](CC(=O)NCc2cc(F)cc(F)c2)O[C@@H]1CO | -7 | -5[16.7 µM]
C[C@@H]1CN([C@H](C)CO)C(=O)Cc2cc(NC(=O)NC3CCCCC3)ccc2O[C@@H]1CN(C)Cc1ccc(C(F)(F)F)cc1 | 11 | 5[16.7 µM]
O=C(Nc1cc(Cl)cc(Cl)c1)N[C@H]1CC[C@@H](CCNS(=O)(=O)c2cccc(F)c2)O[C@@H]1CO | 3 | 13[16.7 µM]
CC(C)NC(=O)Nc1ccc2c(c1)CC(=O)N([C@@H](C)CO)C[C@@H](C)[C@@H](CN(C)S(=O)(=O)c1cn(C)cn1)O2 | -5 | -8[16.7 µM]
C[C@@H]1CN([C@H](C)CO)C(=O)c2cc(-c3cccc(F)c3)cnc2O[C@H]1CN(C)C(=O)C1CCCCC1 | 24 | 21[16.7 µM]
O=C(Nc1ccc(Cl)c(Cl)c1)N[C@@H]1CC[C@@H](CCn2cc(C3CCCCC3)nn2)O[C@H]1CO | 2 | -5[16.7 µM]
C[C@@H]1CN([C@H](C)CO)C(=O)c2cccc(NC(=O)Nc3ccc4c(c3)OCO4)c2O[C@@H]1CN(C)CC1CCCCC1 | -3 | -30[16.7 µM]
O=C(NCC[C@H]1CC[C@@H](NC(=O)Nc2cc(F)ccc2F)[C@@H](CO)O1)Nc1ccc(F)cc1 | 5 | 5[16.7 µM]
C[C@H]1CCCCO[C@H](CN(C)C(=O)c2ccncc2)[C@@H](C)CN([C@@H](C)CO)C(=O)c2cc(NC(=O)CCC(F)(F)F)ccc2O1 | 0 | 7[16.7 µM]
C[C@@H]1CN([C@H](C)CO)C(=O)c2cc(C#CC3CCCCC3)cnc2O[C@@H]1CN(C)C | 2 | 16[16.7 µM]
COc1cccc(C(=O)Nc2ccc3c(c2)C(=O)N(C)[C@@H]2CC[C@H](CC(=O)NCc4ccc(F)cc4)O[C@H]2CO3)c1 | 11 | 5[16.7 µM]
Cc1noc(C)c1S(=O)(=O)Nc1ccc2c(c1)C(=O)N([C@@H](C)CO)C[C@@H](C)[C@H](CN(C)CC1CCCCC1)OCCCC[C@@H](C)O2 | 20 | -13[16.7 µM]
Following part.
SMILES | UUG fidelity | HIV Env fusion
C[C@@H]1CCCCO[C@H](CN(C)C(=O)Nc2ccc(F)cc2)[C@@H](C)CN([C@H](C)CO)C(=O)c2cc(NS(=O)(=O)c3ccccc3)ccc2O1 | -9 | 1[16.7 µM]
O=C(C[C@@H]1C=C[C@@H](NC(=O)Nc2ccccc2F)[C@@H](CO)O1)NCc1ccc(F)cc1 | -8 | 5[16.7 µM]
COc1ccc(-c2cnc3c(c2)C(=O)N([C@H](C)CO)C[C@H](C)[C@@H](CN(C)Cc2cccnc2)O3)cc1 | 0 | -10[16.7 µM]
C/C=C/c1ccc2c(c1)O[C@@H](CN(C)C(=O)Cc1ccccc1)[C@@H](C)CN([C@@H](C)CO)S2(=O)=O | 10 | 14[16.7 µM]
C[C@H]1CN([C@@H](C)CO)S(=O)(=O)c2ccc(C#CC(C)(C)O)cc2O[C@H]1CN(C)Cc1ccc(-c2ccccc2)cc1 | 4 | 11[16.7 µM]
C[C@@H]1CCCCO[C@@H](CN(C)S(=O)(=O)c2ccccc2)[C@H](C)CN([C@H](C)CO)C(=O)c2cc(N(C)C)ccc2O1 | -8 | -14[16.7 µM]
COc1ccccc1-c1cnc2c(c1)C(=O)N([C@@H](C)CO)C[C@@H](C)[C@H](CN(C)Cc1cccnc1)O2 | -7 | 6[16.7 µM]
C[C@H]1CN([C@@H](C)CO)C(=O)c2cccc(NC(=O)Nc3ccc4c(c3)OCO4)c2O[C@@H]1CN(C)C(=O)Nc1cccc2ccccc12 | -11 | -4[16.7 µM]
COc1ccc(S(=O)(=O)Nc2ccc3c(c2)C(=O)N([C@@H](C)CO)C[C@H](C)[C@@H](CN(C)S(=O)(=O)c2ccc(Cl)cc2)OCCCC[C@@H](C)O3)cc1 | 0 | 13[16.7 µM]
COc1cccc(S(=O)(=O)N[C@H]2CC[C@@H](CCn3cc(-c4ccc(F)cc4)nn3)O[C@H]2CO)c1 | 14 | 15[16.7 µM]
Cc1ccccc1-c1cnc2c(c1)C(=O)N([C@@H](C)CO)C[C@H](C)[C@H](CN(C)Cc1ccncc1)O2 | -8 | -5[16.7 µM]
N#C[C@@H]1[C@H](c2ccc(C#Cc3cccc(F)c3)cc2)[C@@H](CO)N1C(=O)C1CC1 | -22 | 19[16.7 µM]
CCNC(=O)C[C@H]1CC[C@H]2[C@H](COc3ccc(NC(=O)Nc4ccccc4OC)cc3C(=O)N2C)O1 | 4 | 21[16.7 µM]
CCNC(=O)Nc1ccc2c(c1)C(=O)N(C)[C@H]1CC[C@H](CC(=O)Nc3ccccc3F)O[C@@H]1CO2 | 10 | -8[16.7 µM]
C[C@@H]1CN([C@@H](C)CO)C(=O)Cc2cc(NC(=O)NC3CCCCC3)ccc2O[C@H]1CN(C)C(=O)Nc1ccc(C(F)(F)F)cc1 | 16 | 25[16.7 µM]

The list is partial. The share of hits here may be higher or lower than overall.
